VACV Venus inh: inhibitors of vaccinia virus (Venus reporter); hit rate 0.46% among 330,000; Vaccinia virus Venus reporter expression, fluorescence; Potency, µM (series often up to 36.5 µM), for inactives: at the highest dose activity change, negative = inhibition, most hits filed as inhibitors; active means well fitted inhibition curve with a large enough effect; inconclusive means small, poorly fitted or top-dose-only effect; inactive means no such curve, though single readings can be large or run the other way; tested in A549 cells; also: nearly all actives have a fitted effect of over 30% in size; inactives centre near -10
VACV mCherry inh: inhibitors of vaccinia virus infection (mCherry reporter signal). Vaccinia virus mCherry reporter infection, fluorescence; about a quarter of the inactives have no number. Potency, µM (doses to about 36.5 µM), for inactives: at the highest dose activity change, negative = inhibition, usual class: inhibitors. hit rate 0.63% among 310,000. AID 720579; active = well fitted inhibition curve with a large enough effect; inconclusive = small, poorly fitted or top-dose-only effect; inactive = no such curve, though single readings can be large or run the other way; tested in A549 cells; also: nearly all actives have a fitted effect of over 35% in size; inactives centre near -10
Starred values were filed as active, the others as inactive; i = inactive; ? = inconclusive; · = no result given; & = joins results of further samples; [ ] = another dose, or the depositor's remark. % is scaled to controls: 0 for no effect and ±100 for the full control effect; potency is read from the fitted curve at half-maximal effect.

cpd	SMILES	VACV mCherry inh	VACV Venus inh
1	Cc1ccc(S(=O)(=O)N2CCCc3cc(NS(=O)(=O)c4ccc(F)c(C)c4)ccc32)cc1	?	?
2	Cc1nc2c(cc1C(=O)N/N=C/c1ccc([N+](=O)[O-])cc1)c(=O)n(C)c(=O)n2C	-7%	1%
3	Cc1cc(C)n(-c2c(C)[nH]c3ccccc23)n1	-13%	-4%
4	CN(C)CCN(Cc1ccco1)S(=O)(=O)c1ccc(-c2ccc(=O)[nH]n2)s1	-1%	-14%
5	CN(C(=O)c1ccc(NC(=O)Cc2ccc(NC(=O)C3CCCN(C(=O)C4CCC4)C3)cc2)cc1)C1CCCC1 (stereo not given)	-32%	-14%
6	CCOCCCNC(=O)c1[nH]c(C)c(C(C)=O)c1C	-14%	5%
7	CCCCC1(CN2CCCC2=O)C(=O)NC(=O)NC1=O	·	6%
8	CCc1ccc(C(O)c2ncc(-c3ccc(C(F)(F)F)cc3)[nH]2)cc1 (stereo not given)	8%	-23%
9	CC(C)[C@H](NC(=O)c1ccccc1F)C(=O)Nc1nc2c(s1)CCCC2	-14%	-3%
10	CCCNc1ccc(-c2nc(-c3ccccn3)no2)cc1[N+](=O)[O-]	-19%	-12%
11	CCOCc1c(C(=O)OCC(=O)NCc2ccc(F)cc2)oc2ccccc12	i	1%
12	CC1(C(=O)Nc2ccc3c(c2)OCCO3)CCN1Cc1ccc(-c2ccccn2)cc1 (stereo not given)	24%	1%
13	COc1ccc(S(=O)(=O)N2CCC(C(=O)NC3CC3)CC2)cc1C	i	-10%
14	CCOc1ccc(CCNC(=O)c2nnc(CS(=O)(=O)c3ccccc3)o2)cc1OCC	-14%	-14%
15	Cc1ccc(-c2nc(N)s[n+]2-c2ccccc2)cc1	-2%	-14%
16	CCOc1ccc(NC(=O)C(=O)N/N=C\c2ccc(CNS(=O)(=O)c3ccccc3)o2)cc1	1%	-20%
17	CC(NC(=O)/C=C/c1ccco1)c1nc2ccccc2n1Cc1cccc(Cl)c1 (stereo not given)	-11%	-22%
18	O=C(CSc1nnc(-c2cccnc2)s1)Nc1ccc(C(=O)O)cc1	i	-10%
19	O=C(NCC(=O)N1CCOCC1)OCc1ccccc1	-11%	-11%
20	COc1ccc(OC)c(C(=O)c2coc3ccc(OCC(=O)O)cc23)c1	-8%	-4%
21	Cc1[nH]n(-c2ccccc2)c(=O)c1C=Nc1ccc(S(N)(=O)=O)cc1	i	-7%
22	CC(C)N(Cc1ccccc1)C(=S)NCCN1CCOCC1	-1%	-8%
23	Cc1ccnc(-n2c(-c3ccccc3)nc3ccccc3c2=O)c1	-14%	-2%
24	CC(=O)C1=CCC(c2ccc(F)cc2)N(S(=O)(=O)c2ccc(C)cc2)C1 (stereo not given)	3%&34%	-7%&-10%

Reprinted at random: 3 compounds from above.
cpd	SMILES	VACV mCherry inh	VACV Venus inh
9	CC(C)[C@H](NC(=O)c1ccccc1F)C(=O)Nc1nc2c(s1)CCCC2	-14%	-3%
23	Cc1ccnc(-n2c(-c3ccccc3)nc3ccccc3c2=O)c1	-14%	-2%
18	O=C(CSc1nnc(-c2cccnc2)s1)Nc1ccc(C(=O)O)cc1	i	-10%

(further entries)
cpd	SMILES	VACV mCherry inh	VACV Venus inh
25	CCCCCN1C(=O)/C(=C/c2c(N3CCc4ccccc4C3)nc3ccccn3c2=O)SC1=S	-14%	25%
26	CC(=O)Cn1ncc(N2CCOCC2)c(Cl)c1=O	-9%	-18%
27	COCCCNC(=O)C1CCCN(S(=O)(=O)c2ccc3c(c2)oc(=O)n3C)C1 (stereo not given)	14%	-3%
28	COC(=O)c1c(-c2c(Cl)cccc2Cl)noc1C(=O)NNC(=O)N(C)C	i[7.34 µM]	-6%[7.34 µM]
29	COc1ccc(CN2c3c(Br)cccc3C(=O)CS2(=O)=O)cc1	?	-24%
30	COc1cc(-c2nnc(SCC(=O)c3ccc(C)cc3)o2)cc(OC)c1OC	-7%	-6%
31	O=C(Nc1c(-c2ccccc2)nc2ccc(Cl)cn12)c1cccs1	-16%	-9%
32	CC(C)(C)OC(=O)NCCc1nnc(SCC(=O)Nc2ccc(Br)cc2)o1	-23%	-21%
33	Cc1ccc(S(=O)(=O)NC(=O)NCCc2ccccc2)cc1	-4%	-8%
34	Nc1[nH]c(C(=O)c2ccccc2)c(-c2ccccc2C(F)(F)F)c1C(=O)NCCc1c[nH]c2ccccc12	?	?
35	Cc1cc(N/N=C/c2ccc([N+](=O)[O-])o2)nc2ccccc12	?	4%
36	CCOCCCNCc1ccc(OCc2ccc(F)cc2)c(OC)c1	-5%	-2%

Full records, quoted from the list:
Cc1ccc(S(=O)(=O)NC(=O)NCCc2ccccc2)cc1 is entered as VACV mCherry inh = -4%; VACV Venus inh = -8%
Cc1cc(N/N=C/c2ccc([N+](=O)[O-])o2)nc2ccccc12 is entered as VACV mCherry inh = ?; VACV Venus inh = 4%

(further entries)
cpd	SMILES	VACV mCherry inh	VACV Venus inh
37	Cc1cccc(NS(=O)(=O)c2ccc(C(=O)N3CCCCCC3)cc2)c1C	i	-6%
38	COc1ccc(C(=O)ON=C2CCN(C)CC2)cc1	-16%	-4%
39	CC12C=CC(=O)C=C1C(F)CC1C3CCC(O)(C(=O)CO)C3(C)CC(O)C12F (stereo not given)	-17%	-9%
40	CCOC(=O)N1CCN(C(=O)c2sc3nc(-c4ccc(F)cc4)cn3c2C)CC1	-18%	-18%
41	CC1=C(C#N)C(c2cccnc2)C2=C(CC(c3ccc(Cl)cc3)CC2=O)N1 (stereo not given)	-7%	6%
42	COc1ccc(OCc2nnc(SCC(N)=O)n2-c2ccccc2OC)cc1	?	-6%
43	COc1cc2c(cc1OC)CN(C(=O)CCNC(=O)c1ccc(Br)cc1)CC2	-11%	-6%
44	N[C@H](C(=O)O)[C@H]1C[C@H]1C(=O)O	i	-8%
45	O=C(N[C@@H](Cc1ccccc1)C(=O)Nc1ccc(F)cc1)C1CCNCC1	-12%	-15%
46	CC(=O)Nc1cccc(-c2ccnc3c2CC(C(=O)NCc2ccc(N(C)C)cc2)O3)c1 (stereo not given)	-9%	-29%
47	CCc1cccc(NC(=S)N(CCOC)C2CCN(C(C)=O)CC2)c1	-14%	-12%
48	CC1CN(Cc2ccccn2)CCC1=O (stereo not given)	i	-13%
49	Cc1ccccc1OCCNc1cc(N2CC(C)NC(C)C2)ccc1[N+](=O)[O-] (stereo not given)	i	-8%
50	Cc1cccc(CC(=O)Nc2ccc3nc(N4CCC(C)CC4)cc(C)c3c2)c1	-11%	-2%
51	O=C(Nc1cccc(C(F)(F)F)c1)c1ccc(-n2cncn2)nc1	-19%	-13%
52	CCCOc1ccc(NC(=O)OC2CCN(C)CC2)cc1	8%	8%
53	Clc1ccc(-c2nnc(-c3ccccc3)nc2-c2c[nH]c3ccccc23)cc1	-4%	2%
54	CC(=O)c1ccc(OCC(O)CN2CCN(CCO)CC2)cc1 (stereo not given)	11%	-6%
55	CCc1ccc(NC(=O)CSc2ccc(-c3ccccn3)nn2)cc1	?	-24%
56	CCOc1ccc(NN=C(C(=O)OC)C(=O)OC)c([N+](=O)[O-])c1	-3%	-4%
57	NC(=O)COC(=O)c1ccc(C(=O)C(=O)c2ccccc2)cc1	0%	-8%
58	CN1CCN(C(=O)/C(=C/c2ccccc2F)NC(=O)c2ccccc2)CC1	-3%	-12%
59	COc1ccc(C)cc1NS(=O)(=O)c1cc2c3c(c1)CC(=O)N3CCC2	-15%	-12%
60	O=C(CCNC(=O)c1ccccc1Cl)Nc1ccc(Cl)c(C(F)(F)F)c1	-29%	-26%
61	COc1ccc2[nH]c3c(c2c1)CCN1C(=O)C(CC(=O)NCCCn2ccnc2)C[C@H](C(=O)N2CCOCC2)[C@@]31CCC1CCCC1 (stereo not given in full)	i	-12%
62	Clc1ccc(-c2csc(-c3nc(-c4ccc(Br)s4)cs3)n2)cc1	-4%	-8%
63	C[C@H](NC(=O)CC[C@H]1O[C@@H](n2ccc(=O)[nH]c2=O)[C@H](O)[C@@H]1O)c1cccc2ccccc12	8%	5%
64	C[C@H]1CN([C@@H](C)CO)C(=O)CCCn2cc(nn2)CO[C@@H]1CN(C)S(=O)(=O)c1ccc2ccccc2c1	-11%	-17%
65	Cc1ccsc1C(=O)N1CCC1(C)C(=O)NCc1cccnc1 (stereo not given)	i	-3%
66	COc1ccc(OC)c(C(=O)NC(CC(N)=O)c2ccc(N3CCN(c4ccc(F)cc4)CC3)c([N+](=O)[O-])c2)c1 (stereo not given)	-3%	-21%
67	CCn1cc([C@@H]2C[C@H]3CN(Cc4cccc(Cl)c4)C(=O)[C@]34CCCN24)cn1	-24%	-15%
68	CCC(NC(=O)Nc1nccs1)(C(F)(F)F)C(F)(F)F	·	-24%
69	Cc1cc(C(=O)Nc2ccc(Cl)cc2)c2ccccc2n1	-10%	-7%
70	O=[N+]([O-])c1cc(Cl)cc(/C=N\Nc2ccccn2)c1O	2.2µM*	?
71	Nc1ncn([C@H]2C[C@H](O)[C@@H](CO)O2)c(=O)n1	?	?
72	COc1ccc(-c2noc(-c3cccnc3NCc3ccco3)n2)cc1	-10%	-6%
73	CNc1nc(-c2ccc([N+](=O)[O-])cc2)cs1	·	-19%
74	C=CCn1c(=NC(=O)C2COc3ccccc3O2)sc2cc(S(N)(=O)=O)ccc21 (stereo not given)	-19%	-26%
75	O=C(NCCc1nnc2n1CCN(Cc1cc3ccccc3o1)CC2)c1ccoc1	i	-11%
76	CCNC(=S)N1CCN(CCNC2=CC(=O)CC(C)(C)C2)CC1	i	-5%
77	CCOC(=O)Nc1ccc([N+](=O)[O-])cc1OC	-6%	-11%
78	Cn1c(=O)oc2cc(S(=O)(=O)NCCC(=O)NC3CCCC3)ccc21	-7%	-7%
79	COc1ccc(NC(=O)C2C3C=CC4(O3)C2C(=O)N(CCN2CCCCC2C)C4C(=O)NC2CCCCC2)cc1 (stereo not given)	-6%	-12%
80	COCC(=O)Oc1c(Sc2ccccc2[N+](=O)[O-])c(C)nn1C(C)(C)C	i	-6%
81	COc1ccc(-c2nc3ccc(C)cn3c2CC2CCCCC2)cc1OC	i	-3%
82	Cc1ccc2sc(N(CCCN(C)C)C(=O)c3ccc(S(=O)(=O)N(C)C4CCCCC4)cc3)nc2c1C	?	?
83	CN(C)CCN(C(=O)c1ccc(S(=O)(=O)N(C)c2ccccc2)cc1)c1nc2ccc(Cl)cc2s1	i	-9%
84	C=CC[C@H](CC(=O)N(CCO)Cc1ccccc1)C(=O)N[C@@H](C)COC(=O)[C@H](CC=C)CC(=O)OC(C)(C)C	-20%	-18%
85	CCOC(=O)N1CCN(C(=O)c2ccc(NS(C)(=O)=O)cc2)CC1	-9%	-13%
86	C[C@H](CO)N1C[C@H](C)[C@@H](CN(C)Cc2ccc(-c3ccccc3)cc2)Oc2c(NC(=O)Cc3ccccc3)cccc2C1=O	-12%	?
87	Cc1cccc(N2C(=O)N(Cc3cc(=O)n4ccccc4n3)c3ccccc3S2(=O)=O)c1	-17%	-15%
88	CC(C)(C)n1nnnc1C1c2ccccc2C(=O)N1CCc1c[nH]c2ccccc12 (stereo not given)	1%	-6%
89	CCCNC(=O)c1cc(C2CCCCN2S(=O)(=O)c2cccc3cccnc23)on1 (stereo not given)	i	-10%
90	C[C@H](NC(=O)c1ccccc1)C(=O)N1CCN(c2ccccc2)CC1	-29%	-2%
91	CN1CCN(S(=O)(=O)c2ccc(N3CCN(c4ccc(O)cc4)CC3)c([N+](=O)[O-])c2)CC1	-11%	-9%
92	Oc1ccc(Nc2nnc(-c3ccc(O)cc3)c3ccccc23)cc1	-18%	-12%
93	COc1ccnc(Oc2ccc(F)cc2)c1C(=O)N/C=N/OCc1ccc(F)cc1	-11%	-4%
94	Cc1cc(C)nc(NC(=O)/C=C/c2ccccc2Cl)n1	·	-10%
95	COc1ccc(N2CCN(C(=O)CN(CCc3ccccc3)S(C)(=O)=O)CC2)cc1	1.8µM*	?
96	c1ccc(OC2CCCCC2N2CCOCC2)cc1 (stereo not given)	-26%	-15%

(continued)
cpd	SMILES	VACV mCherry inh	VACV Venus inh
97	CC(=O)c1cccc(NC(=O)c2cc(=O)[nH]c3ccccc23)c1	-15%	-8%
98	Cc1cccc(C)c1NC(=O)COC(=O)[C@@H]1CCCN1C(=O)c1cccs1	?	2%
99	O=C(O)CCCn1cc(NC(=O)c2ccco2)cn1	i	-5%
100	O=C(CSc1nnc(-c2ccccc2Br)o1)N1CCc2ccccc2C1	-14%	-14%
101	COc1cccc2c1C(=O)c1c(O)c3c(c(O)c1C2=O)CC(O)(C(C)=O)CC3OC1CC(O)C(O)C(C)O1 (stereo not given)	281%[activator]	i
102	COc1ccccc1-n1c(-c2ccc(Cl)cc2)c[nH]c1=S	?	-18%
103	O=C1NC[C@H](CCCCN2C[C@H](Cc3ccccc3)N(CC3CCCCC3)C(=O)C2=O)N(CC2CCCCC2)C1=O	-10%	4%
104	COc1ccc(NC(=O)c2sc3nc(-c4cc5cccc(OC)c5oc4=O)[nH]c(=O)c3c2C)cc1	-9%	-17%
105	Cc1ccc(NC(=O)Cn2cccc2)c(Br)c1	-13%	-4%
106	Cc1ccc(C)c(N2CCN(C(=O)Cn3c(C)c4cnn(-c5ccccc5)c(=O)c4c3C)CC2)c1	?	-19%
107	Cc1nnc(NC(=O)C2CSC3(C)CCC(=O)N23)s1 (stereo not given)	-8%	-10%
108	CC(C)c1ccc(NC(=O)CSC2=Nc3ccccc3C3=NC(CC(=O)NCc4ccc(F)cc4)C(=O)N23)cc1 (stereo not given)	-11%	-9%

Screening data from PubChem BioAssay.
